# Bioassay records deposited in PubChem by National Center for Advancing Translational Sciences (NCATS).
# Cruzain noTriton: inhibitors of Trypanosoma cruzi cruzain without detergent; P25779; purified cruzain, Z-FR-AMC fluorescence, no detergent; Potency, µM, for the others: max response, negative = inhibition, usual class: inhibitors; actives 2.3% (n = 200,000);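 also: plate controls were enzyme without inhibitor for no effect and buffer without enzyme for full effect; nearly all actives have a fitted effect of over 40% in size; top concentration of the series not given in the record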
# Target sequence (P25779 123-467 limits assumed): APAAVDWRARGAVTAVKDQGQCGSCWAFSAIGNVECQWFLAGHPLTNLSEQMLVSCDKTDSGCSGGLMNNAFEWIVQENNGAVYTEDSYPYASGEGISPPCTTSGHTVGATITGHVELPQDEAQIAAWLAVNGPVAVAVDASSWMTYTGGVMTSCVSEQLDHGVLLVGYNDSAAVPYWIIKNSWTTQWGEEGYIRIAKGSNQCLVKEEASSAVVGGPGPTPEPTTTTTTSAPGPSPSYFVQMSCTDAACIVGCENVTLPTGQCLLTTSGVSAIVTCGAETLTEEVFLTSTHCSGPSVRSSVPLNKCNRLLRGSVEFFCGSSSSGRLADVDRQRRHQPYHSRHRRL
#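 Detergent-free condition (0.00005% Triton X-100) in acetate buffer pH 5.5 with DTT. 1.5 nM enzyme and compound were pre-mixed 15 min, then 2 uM Z-FR-AMC substrate added; reaction progress from fluorescence change between first and third reads (60 s).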
# SARS PLP yeast: inhibitors of SARS-CoV papain-like protease in yeast; Potency, µM (highest dose often 32.9 µM), for the others: at the highest dose activity, positive = growth rescue; AID 485353; actives 0.19% (n = 330,000); S. cerevisiae expressing SARS-CoV PLpro, growth rescue; control for the full effect not named in the record; active means well fitted rising curve with a large enough effect; inconclusive means small, poorly fitted or top-dose-only effect; inactive means no such curve, though single readings can be large or run the other way; also: 0% is about no effect; nearly all actives have a fitted effect of over 55% in size; growth read by luminescence after 48 h
# NS1 function inh: blocks influenza NS1 protein function; S. cerevisiae slowed by influenza A NS1, growth recovery by OD600; Potency, µM (series often up to 46.1 µM), for inactives: at the top dose activity, positive = more growth; actives 0.4% (n = 270,000); active means well fitted rising curve with a large enough effect; inconclusive means small, poorly fitted or top-dose-only effect; inactive means no such curve, though single readings can be large or run the other way; also: nearly all actives have a fitted effect of over 50% in size
#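 A cell-based growth assay was used: compounds that relieve NS1-induced slow growth of budding yeast raise OD600. Assay medium was yeast nitrogen base with ammonium sulphate and -URA supplement, pH 6.0, with 2% galactose.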
# MARV entry inh: blocks Marburg virus binding to or entry into cells; Potency, µM (titrated, usually from 37.8 µM), without a hit: at the highest dose activity change, negative = inhibition, most hits filed as inhibitors; actives 1.8% (n = 300,000); Marburg virus pseudotyped entry inhibition, cell reporter; control for the full effect not named in the record; about a third of the inactives were read at about 46 µM; active = well fitted inhibition curve with a large enough effect; inconclusive = small, poorly fitted or top-dose-only effect, or effect the other way; inactive = flat fitted curve, though single readings scatter; tested in HEK293 cells; about a fifth of its hits are not listed in these tables; also: % is scaled to controls: 0 for no effect and ±100 for the full control effect; luciferase read-out
# Cruzain inh Det: blocks cruzain activity in presence of Triton detergent; actives 0.43% (n = 200,000); AID 1478; purified cruzain, Z-FR-AMC fluorescence, 0.01% Triton; Potency, µM, for inactives: max response, negative = inhibition, most hits filed as inhibitors; P25779;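 also: plate controls were neutral wells for no effect and buffer without enzyme for full effect; nearly all actives have a fitted effect of over 40% in size; top concentration of the series not given in the record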
#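 Cysteine protease activity tested under reducing, mildly acidic conditions (100 mM sodium acetate pH 5.5, 5 mM DTT) plus 0.01% Triton X-100. Cruzain 1.5 nM; substrate Z-FR-AMC 2 uM; 15 min compound preincubation at room temperature.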
# Lassa entry inh: blocks Lassa virus binding to or entry into cells. Potency, µM (series often up to 37.9 µM), for inactives: at the highest dose activity change, negative = inhibition, actives largely listed as inhibitors. Lassa virus pseudotype entry inhibition, cell reporter; control for the full effect not named in the record. actives 1.2% (n = 300,000); active means well fitted inhibition curve with a large enough effect; inconclusive means small, poorly fitted or top-dose-only effect, or effect the other way; inactive means flat fitted curve, though single readings scatter; tested in HEK293 cells; also: % is scaled to controls: 0 for no effect and ±100 for the full control effect; nearly all actives have a fitted effect of over 50% in size; luciferase read-out
# RE007 growth inh: less growth of the S. pombe RE007 Vpr strain. Potency, µM (top dose mostly 92.2 µM), for inactives: at the highest dose activity change, negative = less growth. AID 651644. actives 0.21% (n = 360,000). S. pombe RE007 Vpr strain, BacTiter-Glo ATP luminescence, 24 h; control for the full effect not named in the record; active = well fitted falling curve with a large enough effect; inconclusive = small, poorly fitted or top-dose-only effect; inactive = no such curve, though single readings can be large or run the other way;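 also: % is scaled to controls: 0 for no effect and ±100 for the full control effect; nearly all actives have a fitted effect of over 50% in size; the assay follows cell death caused by Vpr and the record does not say whether a fall means rescue or toxicity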
#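 Fission yeast RE007 carrying one integrated HIV-1 vpr copy, seeded at OD 0.01 in PMG+AL medium with 23 nL pinned compound. Grown 24 h at 30 degrees; viability read by BacTiter-Glo luminescence after 5 min.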
# 2A StopGo: FMDV 2A StopGo reporter, luciferase signal. human cells with a luciferase reporter of 2A StopGo recoding; control for the full effect not named in the record. Potency, µM (highest dose often 57.9 µM), without a hit: at the highest dose signal change, negative = less light. actives 1.2% (n = 410,000). AID 1159524; active = well fitted falling curve with a large enough effect; inconclusive = small, poorly fitted or top-dose-only effect; inactive = no such curve, though single readings can be large or run the other way; tested in HEK293T cells; also: % is scaled to controls: 0 for no effect and ±100 for the full control effect; nearly all actives have a fitted effect of over 45% in size; luciferase light after 4 h
# The depositor's hits bear a star; ? = inconclusive; / = not tested or not shown; & = joins results of further samples; [ ] = another dose, or the depositor's remark. Unless noted, calls follow the shape of the dose curve; as a rule, active = well fitted curve in the direction sought with a large enough effect; inconclusive = small, poorly fitted or top-dose-only effect, or another doubt; inactive = no such curve, though single readings can be large; an effect the other way counts as inactive or inconclusive. Potency is read from the fitted curve at half-maximal effect.
SMILES,Cruzain noTriton,SARS PLP yeast,NS1 function inh,MARV entry inh,Cruzain inh Det,Lassa entry inh,RE007 growth inh,2A StopGo
COc1ccc(CCN(C(=O)C(F)(F)F)C(C(=O)NC2CCCCC2)c2ccc(C)s2)cc1OC (stereo not given),23%,0%,4%,-11%,-3.6%,?,-15%,/
O=c1c2ccccc2ncn1-c1ccc([N+](=O)[O-])cc1Cl,/,-4%,-1%,-18%,/,?,5%,-26%
COc1nnc(-c2ccc(N3CCCCC3)c(NC(=O)c3ccccc3)c2)c2ccccc12,4%,/,/,?,-1.3%,24%[46.1 µM],/,8.9µM*
Cc1ccccc1CN1CCNC1=O,6%,3%,?,-6%,-1.2%,22%,-8%,18%
O=C(O)c1cccc(CSc2nc(-c3ccc(Cl)cc3)cc(C(F)(F)F)n2)c1,-28%,-3%,5%,3%,28µM*,-15%,9%,3%
O=C(NN=Cc1cc(Cl)ccc1[N+](=O)[O-])c1ccco1,/,/,/,12%,/,6%[46.1 µM],-13%,6%
O=C(O)c1ccccc1C(=O)Nc1ccccn1,14%,5%,4%,-1%&-1%,2.1%,1%,-3%,1%
CCOC(=O)N1CCN(Cc2nc3cc(NC(=O)c4ccccc4[N+](=O)[O-])ccc3n2C(C)C)CC1,?,/,/,?,-6.6%,-4%[46.1 µM],/,-28%
COC(=O)c1ccc(NC(=O)CC2C(=O)N(c3ccc(C)cc3)C(=O)N2Cc2ccc(OC)cc2)cc1 (stereo not given),?,/,/,/,-2.0%,-1%[46.1 µM],/,1%
COc1cccc(CNCCc2ccc3c(c2)OCO3)c1OC,/,2%,-2%,/,/,/,-14%,2%
Cc1cc(NS(=O)(=O)c2ccc(NC(=O)/C=C/c3cccc(Cl)c3)cc2)no1,/,4%,-1%,6%,/,-22%,1%,2%
COCCn1c(SCC(=O)Nc2ccc(NC(C)=O)cc2)nc2ccccc2c1=O,/,1%,0%,1%,/,-2%,-16%,-1%
COc1ccc(NC(=O)N2CCN(C(=O)c3ccco3)CC2)c(OC)c1,/,-15%,-2%,6%,/,11%,1%,-22%
C=C(C)C1CC=C(C)/C(=N/Nc2ccccc2[N+](=O)[O-])C1 (stereo not given),-3%,15%,-7%,?,-3.9%,-1%,-4%,-6%
COc1ccccc1NC(=O)Cn1c(=O)n(-c2cccc(Cl)c2)c(=O)c2c1c1cc(C)ccc1n2C,2%,/,/,-7%[46.1 µM],2.5%,5%[46.1 µM],/,-15%
Cn1c(=O)c2c(nc3n2CC(O)CN3c2ccc(O)cc2)n(C)c1=O (stereo not given),/,3%,1%,5%[46.1 µM],/,12%[46.1 µM],17%,20%
CCCc1nc2c(C)cc(C)cc2c(N)c1CC,3%,2%,-7%,23µM*,3.1%,-1%,5%,-24%
CC(=O)N1CCN(c2ccc(NC(=O)c3ccc(Cl)c(Cl)c3)cc2)CC1,/,-1%,16%,6%[46.1 µM],/,17%[46.1 µM],-13%,-10%
CCCCCCCCc1ccc(-c2ccc(C(=O)O)cc2)cc1,-16%,/,/,-2%&-2%&-2%&-2%,-0.5%,-6%,/,-10%
Cc1cc(-c2n[nH]c(=S)n2-c2ccc(C)c(C)c2)no1,-5%,15%,?,5%,-3.7%,?,5%,-1%
Cc1c(-n2c(SCC(=O)NC(C)C)nc3ccccc3c2=O)c(=O)n(-c2ccccc2)n1C,/,-6%,4%,22%[46.1 µM],/,-4%,11%,-12%
Cc1ccc(C(=O)NC(=S)Nc2ccc(CN3CCOCC3)cc2)cc1,/,3%,-4%,/,/,/,1%,0%
O=C(CCS(=O)(=O)c1cc(Br)cc2c1N(C(=O)C1CC1)CC2)Nc1ccc(F)cc1,-2%,/,/,?,1.8%,12%[46.1 µM],/,-6%
CC1CCCCC1NC(=O)Cn1cccc1C(=O)c1ccccc1 (stereo not given),/,-3%,-7%,-6%[46.1 µM],/,1%[46.1 µM],-1%,21%
Cc1ccc2c(c1)c(C1=NC(=S)NC1=O)c(O)n2C,/,0%,/,10%[46.1 µM],/,3%[46.1 µM],17%,14%
O=C(NCc1ccccc1)C1CCCN(S(=O)(=O)c2ccc(F)cc2)C1 (stereo not given),/,21%,6%,?,/,?,5%,-13%
CCN(C(=O)COC(=O)c1cn(-c2ccccc2)nc1-c1ccccc1)C1CCS(=O)(=O)C1 (stereo not given),/,1%,/,-15%[46.1 µM],/,5%,-2%,10%
CCc1nccn1Cc1cc(C=O)ccc1OC,/,2%,/,-7%[46.1 µM],/,2%,21%,-9%
CN1CCN(Cc2nc3ccccc3n2C)CC1,2%,5%,?,18%,3.1%,14%,-14%,-9%
CC1CN(C(=O)COC(=O)c2ccccc2O)CC(C)O1 (stereo not given),/,2%,-1%,-3%[46.1 µM],/,1%[46.1 µM],-4%,8%
COc1ccc(CCNC(=O)CC2Oc3ccc(Cl)cc3NC2=O)cc1OC (stereo not given),-5%,0%,-2%,/,6.8%,/,-6%,-24%
CCN1CCN(c2ccc(N)c(C)c2)CC1,/,-2%,/,-16%[46.1 µM],/,/,2%,3%
CCN(C(=O)c1cn(C)c(=O)c2cc(OC)c(OC)cc12)c1cc(OC)ccc1OC,10%,-14%,2%,3%[46.1 µM],1.4%,1%,-13%,-24%
COc1ccc(CC(=O)Nc2ccc(S(=O)(=O)N3CCOCC3)cc2)cc1,/,0%,/,-2%,/,8%,3%,-14%
COc1ccc(C(=O)Nc2ccc(C(=O)NCCc3ccccc3)cc2)cc1,/,1%,0%,-16%,/,8%,-11%,25%
O=[N+]([O-])c1ccc(N2CCN(C(=S)Nc3ccc(F)cc3)CC2)cc1,/,-5%,/,1%[46.1 µM],/,/,5%,?
Cc1ccsc1/C=N/Nc1ncc(Cl)cc1Cl,?,-11%,-78%,-24%,-5.2%,?,-5%,-38%
COc1cc(/C=C/C(=O)OCC(=O)NC(=O)NC2CCCCC2C)ccc1OC(F)F (stereo not given),/,5%,/,-4%,/,-1%,-13%,-11%
CC(=O)C1=C(C)NC(C)=C(C(C)=O)C1c1cccs1,-9%,0%,-2%,8%[46.1 µM],-1.1%,-5%,3%,-7%
CC(=O)c1cccc(CN2CCC(CO)(CCOc3ccccc3)CC2)c1,/,-3%,-8%,/,/,/,-5%,-15%
COc1cc(/C=C/C(=O)OCC(=O)NCCN2C(=O)CSC2=O)ccc1OC(F)F,/,-5%,/,?,/,12%[46.1 µM],-1%,-4%
O=C(CCCSc1nc2ccccc2[nH]1)NCc1ccccc1Cl,11%,-1%,-12%,-16%,-14%,1%,6%,?
O=C(Nc1ccon1)c1cccn(Cc2cccc([N+](=O)[O-])c2)c1=O,-28%,/,/,/,-11%,12%[46.1 µM],/,-25%
CC(=O)Nc1c2c(nn1-c1ccc(C)cc1C)CS(=O)C2 (stereo not given),/,2%,4%,/,/,/,1%,-8%
O=C(NCCc1csc(-c2cccnc2)n1)c1ccc(Br)o1,-8%,0%,-36%,/,-5.7%,/,-10%,-8%
Cc1ccc(-c2ccc(C(=O)O)[nH]2)cc1,-1%,3%,-156%,1%,1.5%,-1%,-11%,26%
CN1CCN(S(=O)(=O)c2ccc(NC(=O)Nc3cccc(Cl)c3)cc2)CC1,-20%,4%,-17%,?,-4.9%,?,19%,13%
Cc1cccc(SC2CCN(Cc3nc(CC4CC4)no3)CC2)c1,/,-1%,-2%,4%,/,-14%,0%,-9%
CCCCOc1ccc(C(=O)NNC(=O)C2C3CCC(C3)C2C(=O)O)cc1 (stereo not given),/,-4%,19%,?,/,-14%[46.1 µM],14%,7%
CCOc1ccccc1NC(=O)c1ccccc1-c1ccccc1,/,-4%,-9%,?,/,5%[46.1 µM],3%,-20%
CCOc1ccc(NC(=O)C2Cc3ccccc3N2C(=O)c2ccccc2)cc1 (stereo not given),-5%,/,/,/,-2.5%,-19%[46.1 µM],/,-29%
O=C1OC(C(=O)Nc2cc(C(F)(F)F)ccc2Cl)Cc2ccccc21 (stereo not given),-7%,/,/,5%[46.1 µM],-0.9%,-18%[46.1 µM],/,-8%
O=C(/C=C/c1cccs1)Nc1scc(-c2ccccc2)c1C(=O)O,/,-8%,/,?,/,?,-17%,-15%
Cn1nnnc1SCCNCc1ccccc1OCc1ccc(F)cc1,/,-1%,/,5%[46.1 µM],/,6%[46.1 µM],-15%,-18%
COc1ccc(CCNC(=O)C(C(=O)c2ccccc2)n2ccccc2=O)cc1OC (stereo not given),2%,?,7%,?,-2.0%,-1%,-16%,4%
CCC1CCCCN1C(=S)NC1CCCCC1 (stereo not given),6%,1%,-14%,11%,1.1%,22%,-1%,5%
COC(=O)[C@@H](NC(=O)NCc1ccco1)C(C)C,-3%,4%,3%,7%,-20%,4%,-4%,-21%
Cc1ccc(S(=O)(=O)NC(CCC(N)=O)C(=O)NCc2ccc3c(c2)OCO3)c(C)c1 (stereo not given),/,-1%,/,-1%[46.1 µM],/,-24%,3%,-20%
COCCN(CCOC)c1ncnc2c1cnn2-c1ccc(Cl)cc1,?,-13%,-59%,-2%,-9.2%,-3%,17%,-4%
O=[N+]([O-])c1cc2c(c(CSc3nnc4ccccn34)c1)OCOC2,0%,6%,28%,20%,-2.6%,2%,-11%,39%[activator]
# (further entries)
SMILES,Cruzain noTriton,SARS PLP yeast,NS1 function inh,MARV entry inh,Cruzain inh Det,Lassa entry inh,RE007 growth inh,2A StopGo
COc1cc(CCC(=O)NCc2ccc3c(c2)OCO3)cc(OC)c1OC,/,1%,0%,-6%[46.1 µM],/,-2%[46.1 µM],14%,-2%
O=C(c1ccncc1)c1ccc(N2CCN(C3CC(=O)N(Cc4cccs4)C3=O)CC2)cc1 (stereo not given),/,-5%,-6%,/,/,/,-7%,25µM*
Cc1cccc(C)c1NC(=O)Cn1c(=O)n(Cc2ccc(C(=O)NCc3ccco3)cc2)c(=O)c2sccc21,-1%,/,/,3%[46.1 µM],0.7%,?,/,-19%
Cc1cc(C)cc(NC(=O)CSc2nc(CSc3ccc(Cl)cc3)cc(=O)[nH]2)c1,/,0%,5%,10%[46.1 µM],/,10%,0%,-12%
Cc1ccccc1N=C1N=C(N)c2ccccc21,-2%,12%,-4%,-10%,-3.4%,-13%,-8%,-6%
CCSc1nccc(-c2nn(-c3ccc(C)cc3)ccc2=O)n1,4%,-12%,-3%,?,-5.8%,?,-9%,?
